Screening data: PubChem BioAssay, several laboratories
YopH PTP inh = inhibitors of Yersinia enterocolitica YopH tyrosine phosphatase. inhibition, %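 (about 10 µM by stock and volumes)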. AID 898. fluorescence Ex485/Em525. hit rate 0.16% among 140,000;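 active means inhibition of 50% or more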;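 further: controls were vehicle for no effect and minimum signal wells for full effect; inactives centre near -20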
Mtb betalactam = beta-lactam sensitization of Mtb H37Rv | M. tuberculosis H37Rv growth with meropenem, percent inhibition; hits of this screen are not shown here | inhibition, % at 25 µM | hit rate 0.27% among 330,000;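 active means about 74% or more and at least 40 points above the plate without the antibiotic, then above 30% in a dose series; inconclusive means first-round hits that could not be retested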;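 further: growth measured after seven days incubation then overnight dye step; 0% = bacteria only wells and 100% = bacteria with antibiotic; twin plates without the antibiotic show which effects depend on it; some results filed as inactive read as strong as hits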
Mtb H37Rv = M. tuberculosis H37Rv growth inhibitors, H37Rv strain (AID 1626); inhibition, % at 10 µM; hits with a dose series show IC50 in µM; hit rate 0.95% among 220,000; M. tuberculosis H37Rv growth inhibition; higher % means a stronger effect;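 active means confirmed in a dose series; inconclusive means inhibition above 80% but not taken into the dose series; inactive means below 80% or under 30% at every dose of the series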;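 further: bacteria incubated seven days before Alamar blue readout; 0% = bacteria only wells and 100% = bacteria with antibiotic wells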
RecA splice inh = Mtb RecA intein splicing inhibition; P9WHJ3; cell-free RecA intein splicing, fluorescence; inhibition, %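 (about 9 µM by stock and volumes)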; hit rate 0.75% among 290,000; in the data active means inhibition above about 30%; inconclusive means no clear call, values can overlap the other calls;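 further: 0% = vehicle wells and 100% = reference inhibitor control wells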
Target sequence (P9WHJ3 whole entry, looked up, canonical isoform): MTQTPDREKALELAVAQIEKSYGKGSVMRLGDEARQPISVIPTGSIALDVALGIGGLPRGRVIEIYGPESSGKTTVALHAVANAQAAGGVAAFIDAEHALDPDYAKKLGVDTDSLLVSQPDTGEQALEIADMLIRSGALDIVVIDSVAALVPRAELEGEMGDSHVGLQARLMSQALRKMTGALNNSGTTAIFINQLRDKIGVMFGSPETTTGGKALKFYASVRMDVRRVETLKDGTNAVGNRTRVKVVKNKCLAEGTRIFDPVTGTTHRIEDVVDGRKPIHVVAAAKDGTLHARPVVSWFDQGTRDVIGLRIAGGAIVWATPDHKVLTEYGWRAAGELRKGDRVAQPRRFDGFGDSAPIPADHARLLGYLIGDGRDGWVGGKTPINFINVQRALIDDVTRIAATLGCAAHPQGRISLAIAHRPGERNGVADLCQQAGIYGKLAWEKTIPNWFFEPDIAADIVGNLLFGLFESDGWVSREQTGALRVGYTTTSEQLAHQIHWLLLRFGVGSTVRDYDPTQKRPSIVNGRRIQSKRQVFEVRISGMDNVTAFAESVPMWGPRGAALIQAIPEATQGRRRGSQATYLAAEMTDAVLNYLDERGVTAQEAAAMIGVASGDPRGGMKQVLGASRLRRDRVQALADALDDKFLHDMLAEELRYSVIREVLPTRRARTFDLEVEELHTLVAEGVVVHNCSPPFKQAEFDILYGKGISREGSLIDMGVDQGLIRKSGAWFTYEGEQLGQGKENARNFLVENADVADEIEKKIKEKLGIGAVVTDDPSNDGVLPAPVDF
Arbovirus anti = arbovirus infection inhibition; inhibition, % at 10 µM; hit rate 0.37% among 200,000; arbovirus infection cell-based antiviral screen; AID 1251;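 active means inhibition from about 30%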;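 further: bluetongue infection of BSR cells; cell survival read as ATP light after 72 h; 0% = infected wells without compound and 100% = uninfected wells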
Arbovirus anti repeat = further read-out of Arbovirus anti, marked with its call; inhibition, %; measured here: 10K subset replicate screen; many hits read low in the repeat;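 first of two repeat runs on a subset; 0% = infected and 100% = uninfected wells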
Active calls of the source: *; ? = inconclusive; nt = not tested or not shown.

SMILES	YopH PTP inh	Mtb betalactam	Mtb H37Rv	RecA splice inh	Arbovirus anti	others
CN1CCC(N(C)S(=O)(=O)c2ccc(NC(=O)COc3ccc([N+](=O)[O-])cc3)cc2)CC1	nt	-6	nt	-0.8	nt
O=C(COC(=O)c1ccc(Br)cc1)NCCC1=CCCCC1	nt	-3	8%	1.2	1
Cc1cc(C)c2cc(C(O)c3nnnn3Cc3ccccc3)c(=O)[nH]c2c1 (stereo not drawn)	-36	-1	-3%	-1.1	8
CCN(CC)S(=O)(=O)c1ccc(-c2nnc(SCC(N)=O)n2CC)cc1	nt	-4	-3%	-1.8	4
CCCOP(=O)(OCCC)C(Nc1cccc(C(F)(F)F)c1)c1ccc(C)cc1 (stereo not drawn)	1	-8	5%	6.9	-16
O=C(CSc1ncccn1)N1CCN(S(=O)(=O)c2ccccc2)CC1	nt	-7	-6%	2.0	nt
O=C(NC(=S)N1CCCCCC1)c1ccc(Cl)cc1Cl	nt	83	?	1.3	0
CCN(CC)S(=O)(=O)c1cc(-c2nnc(-c3ccc(Br)cc3)o2)ccc1Br	-21	-1	14%	4.3	-2
COC(=O)c1sc2ncn(-n3c(C)ccc3C)c(=O)c2c1C	23	-11	nt	1.3	-5
O=C(Nc1ccc(F)c(Cl)c1)Nc1ccc(Cl)cn1	nt	-2	-2%	-1.0	-10
CC(=O)Nc1sc(N/N=C/c2ccccc2F)nc1-c1ccc(C)cc1	nt	1	-5%	-5.6	nt
Fc1cccc(Cl)c1Cc1noc(/C=C/c2ccccc2)n1	0	1	10%	nt	2
Cn1c(=O)oc2cc(S(=O)(=O)N3CCCC(C(=O)N4CCn5c4nc4ccccc45)C3)ccc21 (stereo not drawn)	-25	nt	3%	nt	6	Arbovirus anti repeat=-5
Cc1ccc(Cn2c(C(=O)O)cc3sccc32)cc1	-20	-7	-2%	4.8	8
O=C(Nc1cc(C(F)(F)F)ccc1N1CCOCC1)c1cn2ccccc2n1	-10	4	-3%	-1.4	-2
Cc1cc(C)cc(NC(=O)c2cc(=O)c3ccccc3o2)c1	nt	1	8%	-1.4	10
COCC(=O)n1nc(NCc2ccc(OC)cc2)nc1NCc1ccc(OC)cc1	-1	4	9%	-5.2	4
CCNS(=O)(=O)c1ccc(CCC(=O)O)cc1	nt	2	12%	0.5	3
Cc1cnc(NC(=O)CN(C)S(=O)(=O)c2ccc(Cl)cc2)s1	-29	3	8%	-2.4	3
CSc1ncccc1C(=O)Nc1nc2ccc(Oc3ccccc3)cc2s1	-17	nt	32%	6.9	-8
COc1ccc(C(C(=O)NC2CCCCC2)N(C(=O)CCl)c2ccc(Cl)cc2)cc1 (stereo not drawn)	-22	48	4%	67*	3
COc1cc2c(cc1OC)CN(Cc1nc3ccsc3c(=O)[nH]1)CC2	-14	-4	-3%	-51	6
Cc1cccc(NCc2ccccc2O)c1	-10	-8	-6%	-2.1	3
CN1CCN(CCCNCc2cn(CCC#N)c3ccccc23)CC1	nt	3	nt	0.5	nt

Five consecutive entries already listed, for reference:
SMILES	YopH PTP inh	Mtb betalactam	Mtb H37Rv	RecA splice inh	Arbovirus anti	others
CSc1ncccc1C(=O)Nc1nc2ccc(Oc3ccccc3)cc2s1	-17	nt	32%	6.9	-8
COc1ccc(C(C(=O)NC2CCCCC2)N(C(=O)CCl)c2ccc(Cl)cc2)cc1 (stereo not drawn)	-22	48	4%	67*	3
COc1cc2c(cc1OC)CN(Cc1nc3ccsc3c(=O)[nH]1)CC2	-14	-4	-3%	-51	6
Cc1cccc(NCc2ccccc2O)c1	-10	-8	-6%	-2.1	3
CN1CCN(CCCNCc2cn(CCC#N)c3ccccc23)CC1	nt	3	nt	0.5	nt

Carrying on:
SMILES	YopH PTP inh	Mtb betalactam	Mtb H37Rv	RecA splice inh	Arbovirus anti	others
CC(=O)Nc1c(C(=O)O)oc2ccc(Cl)cc12	-46	2	nt	-1.1	16
O=C(Nc1nc2ccccc2[nH]1)c1cccc(Br)c1	nt	85	nt	0.7	nt
COc1ccc2c(=O)cc(C(F)(F)C(F)(F)F)oc2c1	-20	9	-4%	-0.2	-1
COc1ccc(C(C(C(=O)c2cccs2)N2CCOCC2)N2CCOCC2)cc1OC (stereo not drawn)	-16	1	-5%	3.5	6
O=C(c1ccc(N2CCOCC2)c([N+](=O)[O-])c1)N1CCCCC1	nt	-14	nt	0.8	nt
CCOC(=O)N1CCN(C(=O)c2ccc(Cn3c(=S)[nH]c4cc5c(cc4c3=O)OCO5)cc2)CC1	-6	0	0%	nt	20
Cc1ccccc1NS(=O)(=O)c1ccc(NC(=O)N2CCCCC2)cc1	nt	-7	nt	-0.6	nt
CN(C)CCCNC(=O)c1cc2sc3ccccc3c2s1	nt	-9	5%	0.6	-37
NC(=O)c1ccc(N2CCCCC2)c(N2C(=O)C3C4C=CC(C4)C3C2=O)c1 (stereo not drawn)	-47	0	-1%	1.4	4	Arbovirus anti repeat=-2
CC1CCN(CCCNC(=O)c2cc3sccc3n2C)CC1	-10	0	0%	2.0	11
CS(=O)(=O)N(CC(=O)N1CCCCCC1)c1ccccc1	12	-9	-4%	-0.7	4
COc1cc(/C=C2/NC(=O)N(Cc3ccccc3F)C2=O)cc(OC)c1O	nt	-1	2%	nt	-3
O=S1(=O)N=C(N2CCN(c3ccc(F)cc3)CC2)c2ccccc21	13	4	-6%	-1.5	4
CN(CC(=O)OCC(=O)NCC(F)(F)F)S(=O)(=O)c1ccc(Cl)cc1	nt	1	5%	-0.2	4
CCN1CCN(C(=O)N[C@@H](C(=O)N[C@@H]2C(=O)N3[C@@H]2SC(C)(C)[C@@H]3C(=O)O)c2ccccc2)C(=O)C1=O	-23	-6	-4%	0.5	4
CC1(C)CC(=O)c2sc(NC(=O)c3ccccc3)nc2C1	nt	11	7%	-2.0	-3
O=C(NC1CC1)C1CC(=O)N(c2ccccc2)C1 (stereo not drawn)	nt	0	nt	1.2	nt
O=C1CSC(c2ccccc2)N1c1nc(-c2ccc(Cl)cc2Cl)cs1 (stereo not drawn)	-41	19	-1%	nt	-9
Nc1ccc(-c2nc3nc(N)nc(N)c3nc2-c2ccc(N)cc2)cc1	nt	92	7%	6.2	nt
O=C(O)c1ccc(NC(=O)c2ccc3c(c2)C(=O)N(c2ccccc2)C3=O)cc1	nt	1	nt	-1.6	nt
CCOC(=O)Cn1c(CN2CCN(C(=O)c3ccco3)CC2)nc2c1c(=O)n(C)c(=O)n2C	nt	-2	nt	0.5	nt
COc1ccccc1CNC(=O)CSc1nnc2c(n1)[nH]c1ccc(F)cc12	nt	4	nt	2.3	nt
CC(C)Cc1ccccc1O	nt	-3	nt	-0.2	nt
COC(=O)N/N=C\c1ccc(OC/C=C/c2ccccc2)cc1	nt	1	nt	1.1	nt
COc1ccc(/C=N/n2c(N)nc(-c3ccccc3)c2-c2ccccc2)cc1	-30	86	-4%	3.6	-13
O=C(O)CN1C(=O)/C(=C\c2cccc(OCc3ccc(Cl)cc3)c2)SC1=S	nt	2	nt	17	nt
CN(c1ccccc1C(=O)Nc1ccc(S(=O)(=O)N2CCCC2)cc1)S(C)(=O)=O	-36	10	-3%	0.4	2
N#Cc1c(N2CCCCC2)nc(N)c2c(N)nc(SCC(=O)O)cc12	nt	-7	-1%	61*	nt
Cc1nnc(SCC(=O)NCCc2ccccc2)s1	nt	-9	3%	-0.5	-35
COC(=O)CNC(=O)Cc1c(F)cccc1Cl	-22	-3	-7%	-1.0	1
CN(C)c1ccc(P(=O)(Nc2ccc([N+](=O)[O-])cc2)N2CCOCC2)c(NC(=O)c2cccs2)c1 (stereo not drawn)	-21	-6	65%	-2.9	4
O=c1[nH]c(=S)ccn1C1OC(CO)C(O)C1O (stereo not drawn)	nt	90	-3%	-1.2	nt
CCCCN(C)CCNC(=O)c1cc2c(-c3cccc(OC)c3)nn(C)c2s1	nt	-3	nt	1.7	nt
COC(=O)c1nnn(-c2nc(N3CCOCC3)nc(N3CCOCC3)n2)c1C	nt	-7	0%	1.1	5
O=C(c1cccs1)N1CCN=C1SCc1cccnc1	50*	-4	-2%	-0.6	-1
CCN1CCN(C(CNS(=O)(=O)c2ccc(F)cc2)c2cccnc2)CC1 (stereo not drawn)	nt	-5	nt	-1.4	nt
Cc1noc(/C=C/NCc2cccnc2)c1S(=O)(=O)N(C)CC(=O)N1CCc2ccccc21	-50	5	1%	0.2	-2	Arbovirus anti repeat=7
COc1ccccc1N1N=C(c2ccc([N+](=O)[O-])cc2)CC1c1ccccc1 (stereo not drawn)	nt	5	nt	4.0	nt
COc1ccc(-c2csc3nc(-c4ccccc4OC)oc(=O)c23)cc1	nt	99	?	20	-30
CCOC(=O)c1cnc(-c2ccccc2)nc1Oc1cccc(Cl)c1	-2	8	10%	3.5	2
Cc1cc(=O)oc2cc(OCC(=O)OCC(=O)Nc3ccccc3Br)ccc12	nt	5	-14%	-1.1	nt
CCOc1ccc(/C=N/N2CCN(Cc3ccccc3)CC2)cc1	nt	-1	nt	-0.7	nt
O=C(COC(=O)c1ccc(S(=O)(=O)N2CCOCC2)cc1)NC1CCCCCC1	-2	4	-5%	1.4	10	Arbovirus anti repeat=0
Cc1ccc(Nc2cc(=O)[nH]c(=O)[nH]2)cc1C	nt	2	-4%	0.2	-4
CC(C)c1onc(C(=O)NCCc2ccccc2)c1[N+](=O)[O-]	nt	11	7%	-1.3	4
O=C(CSc1ccccn1)N1CCN(C(=O)CSc2ccccn2)CC1	nt	-11	-1%	-0.7	nt
Cc1ccc(NS(=O)(=O)c2ccc3c(c2)n(C)c(=O)n3C)c(C)c1	nt	-3	nt	-0.3	nt
CCOc1ccc(Oc2ccccc2NC(=O)CN2C(=O)NC3(CCCC3)C2=O)cc1	nt	2	nt	3.0	nt
O=C(CCSc1ccc(Cl)cc1)Nc1cccnc1	nt	8	8%	1.6	-2
CCOC(=O)CSc1nnc(NC(=O)c2cccc([N+](=O)[O-])c2)s1	-15	14	5%	3.6	0

An excerpt from above in order of number of heavy atoms, ascending.
SMILES	YopH PTP inh	Mtb betalactam	Mtb H37Rv	RecA splice inh	Arbovirus anti	others
O=C(CCSc1ccc(Cl)cc1)Nc1cccnc1	nt	8	8%	1.6	-2
CC(C)c1onc(C(=O)NCCc2ccccc2)c1[N+](=O)[O-]	nt	11	7%	-1.3	4
CCOC(=O)c1cnc(-c2ccccc2)nc1Oc1cccc(Cl)c1	-2	8	10%	3.5	2
COc1ccccc1N1N=C(c2ccc([N+](=O)[O-])cc2)CC1c1ccccc1 (stereo not drawn)	nt	5	nt	4.0	nt

A portion of the library; count on the stated rates, not on these rows.
